Screening results as filed in PubChem BioAssay.
VDR inhibitor – blocks the human vitamin D receptor. 400,000 tested, 0.93% active. VDR-SRC2-3 peptide fluorescence polarization, 2 h. Potency, µM, without a hit: max response, negative = inhibition, hits mostly inhibitors. P11473; active = well fitted inhibition curve with a large enough effect; inconclusive = small, poorly fitted or top-dose-only effect, or another doubt; inactive = no such curve, though single readings can be large or run the other way; also: series mostly up to about 120 µM
Target sequence (P11473 whole entry, looked up): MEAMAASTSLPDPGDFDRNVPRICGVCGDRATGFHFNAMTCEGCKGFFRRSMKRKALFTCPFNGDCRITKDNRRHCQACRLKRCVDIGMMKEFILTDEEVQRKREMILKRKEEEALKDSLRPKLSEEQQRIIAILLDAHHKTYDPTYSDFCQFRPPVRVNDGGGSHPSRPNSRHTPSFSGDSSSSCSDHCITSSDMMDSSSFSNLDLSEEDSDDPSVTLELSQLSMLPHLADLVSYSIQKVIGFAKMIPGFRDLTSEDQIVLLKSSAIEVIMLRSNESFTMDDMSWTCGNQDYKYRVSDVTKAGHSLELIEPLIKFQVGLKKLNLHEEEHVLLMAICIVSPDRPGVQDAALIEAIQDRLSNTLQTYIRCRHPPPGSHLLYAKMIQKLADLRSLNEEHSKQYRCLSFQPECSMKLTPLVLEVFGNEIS
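The screen uses fluorescence polarization to detect compounds that interfere with recruitment of the SRC2-3 coactivator peptide to VDR; plates are read after 2 h at room temperature.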
* = called active by the depositor; ? = inconclusive; & = joins results of further samples; [ ] = dose if it differs, or a comment. % is scaled to controls: 0 for no effect and ±100 for the full control effect; potency is read from the fitted curve at half-maximal effect.

Molecule | VDR inhibitor
Cc1nn(-c2ccccc2Cl)c2sc(C(=O)Nc3nnc(C4CC4)s3)cc12 | -1%
C=CCSc1nnc(NC(=O)CSc2nc(CCC)cc(=O)[nH]2)s1 | -7%
Cn1c(=O)n(-c2cccc(Cl)c2)c(=O)c2sc3ccccc3c21 | -15%
C/C(CC(=O)NC(C)(C)C)=N\NC(N)=S | 1%
COc1cccc(CNc2ccc(C)c(Cl)c2)c1 | 0%
CCSc1nnc(NC(=O)C2CSC3(C)CCC(=O)N23)s1 (configuration not stated) | -11%
CCN(c1ccc(C)cc1)S(=O)(=O)c1nnc(NC(=O)c2ccco2)s1 | 8%
COc1ccc(-c2nc3ccc(C(=O)NCCCN4CCOCC4)cc3nc2-c2ccc(OC)cc2)cc1 | -24%

Further records
Molecule | VDR inhibitor
O=C(NCc1ccccn1)c1cccc(NS(=O)(=O)c2ccccc2)c1 | -3%
COc1cccc(C(=O)NCCNC(=O)c2cnccn2)c1 | 7%
CCOC(=O)Cc1csc(NC(=O)c2ccc([N+](=O)[O-])cc2[N+](=O)[O-])n1 | 12%
O=C(Cn1ncc2c([nH]c3ccccc32)c1=O)N1CCCCC1 | 7%
C=CCn1c(C)cc(-c2csc(NCC)n2)c1C | 108%[activator]
COCc1ccc(C(=O)N2CCCC(C(=O)c3ccc(SC)cc3)C2)o1 (configuration not stated) | 8%
COC(=O)c1ccc(CSc2nncn2C)cc1 | -7%
CCCC1=C(C(=O)OCC)C(c2cccnc2)n2nc(C)nc2N1 (configuration not stated) | -6%

New compounds follow
Molecule | VDR inhibitor
CCOc1c(Br)cc(/C=C(\C#N)C(=O)NC2CC2)cc1OC | ?
C/C(=N\NC(N)=S)c1ccc2c(c1)OCCO2 | -8%
CC(=O)Oc1ccc(C(=O)Nc2cccc3c2CCCC3)cc1 | 17%
Cc1c(C(=O)N2CCCCCC2)c(S(=O)(=O)Nc2cccc(F)c2)c(C)n1C | -19%
Cc1ccc(S(=O)(=O)N2CCCNCC2)cc1 | 11%
CNc1nc(Nc2ccc(C)c(Cl)c2)c2cnn(C)c2n1 | 17%
Nc1c(S(=O)(=O)c2cccs2)c2nc3ccccc3nc2n1Cc1ccc2c(c1)OCO2 | 10%
O=C(CSc1nc(=O)n(CCN2CCOCC2)c2c1CCCC2)Nc1ccc([N+](=O)[O-])cc1 | -9%

(more compounds)
Molecule | VDR inhibitor
NS(=O)(=O)c1ccc(CNC(=O)C2CCCCC2)cc1 | -13%
COc1cccc(/C=N/Nc2nc(N3CCCC3)nc(N3CCCC3)n2)c1O | -5%
c1ccc(-c2onc3cc4c(cc23)OCCO4)cc1 | 4%
COc1cc2c(C(=O)N(C)c3cc(Cl)ccc3OC)cn(C)c(=O)c2cc1OC | 3%
Cc1c2cnn(CC(=O)NCc3ccc(F)cc3)c(=O)c2c(C)n1Cc1ccccc1F | 16%
COc1cc(OC)cc(C(=O)Nc2ccc3nc(N4CCCCC4)cc(C)c3c2)c1 | -2%
COCCCNC(=O)c1ccc(CNS(=O)(=O)c2ccc(NC(C)=O)cc2)cc1 | -25%
O=C(COC(=O)c1ccc(O)cc1O)NC(=O)NCc1ccccc1 | -6%

Next section.
Molecule | VDR inhibitor
O=C(NCCN1CCOCC1)c1ccc2c(c1)N(Cc1ccc(Cl)cc1)C(=O)CS2 | 12%
Cc1ccc(C)c(NC(=S)NC(NC(=O)OCc2ccccc2)C(Cl)(Cl)Cl)c1 (configuration not stated) | -2%
O=C(Nc1ccccc1)c1cn2ccccc2n1 | -7%
Cc1c(Nc2nc3ccccc3n3c(C)nnc23)cccc1C(=O)O | 27%
Cc1ccc(NC(=O)CN2C(=O)C(c3ccccc3)=NC23CCCCC3)cc1C | 9%
O=C(CCCN1C(=O)/C(=C\c2cccs2)SC1=S)Nc1ccccn1 | -3%
CCOC(=O)COc1c(OC)cc(Cl)cc1C1Nc2ccccc2C(=O)N1c1ccccc1 (configuration not stated) | 3%
COC(=O)c1ccccc1N(Cc1ccccc1)S(C)(=O)=O | 6%

Next part.
Molecule | VDR inhibitor
COc1ccccc1NC(=O)CSc1nnc(NC(=O)C2CCC2)s1 | -6%
O=C(Nc1ccc(Cl)c(Cl)c1)Oc1ccc(NC(=O)c2ccco2)cc1 | -11%
CCCCNC(=O)Nc1nnc(C(C)(C)C)s1 | -2%
Cc1cccc2c1N(C)C(=O)C2=O | 6%
S=C(Nc1cccc(Cl)c1)Nc1ccc2cn[nH]c2c1 | -15%
Cc1nnc(SCc2ccc(Cl)cc2)nc1/C=C/N(C)C | -7%
COc1ccc(NC(=O)N2CCCC3(CCN(C(=O)c4ccncc4)CC3)C2)cc1 | -8%
COc1ccccc1-n1ccn(CC(=O)Nc2ccc(C)cc2Cl)c(=O)c1=O | -18%

(further entries)
Molecule | VDR inhibitor
FC(F)(F)c1nc(NCc2cccnc2)c2ccccc2n1 | -13%
CCNc1cc2n(c(=O)n1)CCc1cc(OC)c(OC)cc1-2 | -10%
CCOc1ccccc1N1CCN(CC(O)COC2CCCc3ccccc32)CC1 (configuration not stated) | -6%
Clc1ccc(CNc2ccc3nnc(-c4ccccc4)n3n2)cc1 | -8%
O=C(Nc1ccc(F)cc1F)C1CCCN1S(=O)(=O)c1ccc(-c2ccc(=O)[nH]n2)s1 (configuration not stated) | -12%
C[C@@H]1CCC(=O)N(CC[C@H](Sc2ccccc2)c2ccccc2)CC1 | -7%
CCC/C(=N/NC(=O)c1ccc2c(c1)OCO2)c1cccs1 | 1%
CC1=C(C)[N+](=O)C2CCCCC2N1[O-] (configuration not stated) | 8%

(more compounds)
Molecule | VDR inhibitor
Cc1ccc(/C=N/n2c(C3CCCCC3)n[nH]c2=S)o1 | -6%
CCN(c1ccc2c(c1)OCO2)S(=O)(=O)c1cc2c(cc1Br)CCN2C(=O)C1CC1 | -13%
COc1ccc(NC(=O)CCCOc2cc(=O)n(C)c3ccccc23)c(OC)c1 | -6%
CCN(Cc1ccncc1)C(=S)NCc1ccccc1 | 3%
C[C@@H]1C[C@H]2[C@@H]3CCC4=CC(=O)C=C[C@]4(C)[C@@]3(F)[C@@H](O)C[C@]2(C)[C@H]1C(=O)CO | 1%&-6%
CCCNC(=O)c1ccc(Cl)cc1Cl | -12%
O=C(Nc1ccc(NC(=O)c2sc3ccccc3c2Cl)cc1)c1ccco1 | -12%
O=C(OCC(=O)N1CCOCC1)c1ccc(Br)cc1 | -5%

Later entries
Molecule | VDR inhibitor
COc1cc(C)ccc1OCc1cc(C(=O)NCCN2CCOCC2)no1 | -2%
COc1cc(CN2CCc3nc(N4CCN(c5ncccn5)CC4)ncc3C2)cc(OC)c1OC | 4%
CC(=O)Nc1ccc(S(=O)(=O)N2CCN(S(=O)(=O)c3cccs3)CC2)cc1 | -14%
Cc1ccc(CCNC(=O)CS(=O)Cc2nc(-c3ccccc3C)oc2C)cc1 (configuration not stated) | -11%
CC(=O)NCCC(=O)Nc1cc(S(=O)(=O)N2CCOCC2)ccc1N1CCOCC1 | -2%
CCOc1ccc(NC(=O)CN2C(=O)/C(=C3\SC(=S)N(C4CCS(=O)(=O)C4)C3=O)c3ccccc32)cc1 (configuration not stated) | -4%
NC(=O)[C@H]1CC2(CC(c3cccc(NC(=O)[C@H]4CCC(=O)N4)c3)=NO2)CN1C(=O)c1ccccc1C(=O)c1ccccc1 (some centres not stated) | 8%
Cc1ccc(SCC(=O)Nc2ccc3oc(-c4ccccc4F)nc3c2)cc1 | -13%

The final 5 entries of the part above lead into the next:
Molecule | VDR inhibitor
Cc1ccc(CCNC(=O)CS(=O)Cc2nc(-c3ccccc3C)oc2C)cc1 (configuration not stated) | -11%
CC(=O)NCCC(=O)Nc1cc(S(=O)(=O)N2CCOCC2)ccc1N1CCOCC1 | -2%
CCOc1ccc(NC(=O)CN2C(=O)/C(=C3\SC(=S)N(C4CCS(=O)(=O)C4)C3=O)c3ccccc32)cc1 (configuration not stated) | -4%
NC(=O)[C@H]1CC2(CC(c3cccc(NC(=O)[C@H]4CCC(=O)N4)c3)=NO2)CN1C(=O)c1ccccc1C(=O)c1ccccc1 (some centres not stated) | 8%
Cc1ccc(SCC(=O)Nc2ccc3oc(-c4ccccc4F)nc3c2)cc1 | -13%
CCN(CC)CCCNC(=O)c1cc2nc(-c3ccccc3)cc(C(F)(F)F)n2n1 | -9%
CCCCCC(=O)NCc1c(C(F)(F)F)nn(C)c1N1CCOCC1 | 6%
COc1cc(Br)cc(/C=C/c2ccc3cccc(O)c3n2)c1OC | -4%
CC1=Nc2ccc3ccccc3c2C1(C)C | -2%
CC(NC(=O)Nc1ccc([N+](=O)[O-])cc1)C(c1ccccc1)N1CCOCC1 (configuration not stated) | -1%
Cc1ccc(CNc2ccc(N3CCOCC3)c(Cl)c2)cc1 | 3%
COc1ccc(N2CCN(C3CC(=O)N(C)C3=O)CC2)cc1 (configuration not stated) | 11%
CCn1c(/C=C/c2cc(Br)ccc2O)nc2ccccc2c1=O | 3%

Further entries:
Molecule | VDR inhibitor
CN1CCN(c2ncc3ncc(=O)n(Cc4cccs4)c3n2)CC1 | 0%
Cc1cc(C)cc(NC(=O)CCN2CC(C)OC(C)C2)c1 (configuration not stated) | -1%
CCn1ncc(Br)c1C(=O)Nc1ccc(C(=O)OC(C)C)cc1 | -18%
O=C(COc1ccc(F)cc1)Nc1nnc(-c2ccncc2)s1 | -19%
CC(C)c1ccc(Cc2cnc(NC(=O)c3ccc4c(c3)CC(c3ccccc3)OC4=O)s2)cc1 (configuration not stated) | -6%
O=S(=O)(NCc1ccccn1)c1ccccc1 | -3%
Cc1cccc(-c2n[nH]c(=S)n2/N=C/c2ccc(C)s2)c1 | 0%
CN(C)C(=O)n1nnnc1Cc1ccc(-c2ccccc2)cc1 | 6%

Carrying on.
Molecule | VDR inhibitor
CCc1nn(CC(=O)Nc2c(C)cc(C)cc2C)c(=O)c2cc3sccc3n12 | -5%
Cc1cccc(N2CC(O)(c3cccs3)[N+]3=C2CCCCC3)c1 (configuration not stated) | -28%
COc1ccc2nc(N3CCCC(O)C3)c(C#N)cc2c1 (configuration not stated) | -6%
Cc1cccc(NC(=S)NC2CCN(Cc3ccccc3)CC2)c1C | -13%
O=C(COC(=O)Cn1cc(C(F)(F)F)ccc1=O)Nc1ccc(Br)cc1F | -2%
O=C(NCc1cccc(Cl)c1)c1cc2c(s1)-c1ccccc1SC2 | 8%
CC(=O)C1=C(C)NC(=O)NC1c1cc(Br)ccc1OCC(N)=O (configuration not stated) | -7%
CC(C)C(=O)NC(Nc1ccc(S(N)(=O)=O)cc1)C(Cl)(Cl)Cl (configuration not stated) | -4%

(listing goes on)
Molecule | VDR inhibitor
CC(=O)c1c(C)[nH]c(C(=O)Nc2cccc(S(=O)(=O)N(C)c3ccccc3)c2)c1C | 54%[activator]
Cc1nc2ccc(C(=O)N3c4ccccc4CC3C)cc2s1 (configuration not stated) | -8%
CC(/C=C1\SC(=S)N(NC(=O)c2cccc(O)c2)C1=O)=C\c1ccccc1 | -18%
O=C(c1ccccc1)N1CCN(C(=O)c2nn3c(C(F)(F)F)cc(-c4ccccc4)nc3c2Br)CC1 | 8%
CCOC(=O)N1CCN(C(=O)c2ccc(CS(=O)(=O)c3c(Cl)cccc3Cl)o2)CC1 | -10%
O=C(/C=C/c1cn(CC(O)CN2CCCCC2)c2ccccc12)c1cccs1 (configuration not stated) | 1%
CSc1ncc(C(=O)Nc2ccccc2Cl)c(C)n1 | 3%
Cc1ccccc1N=C1SCC(=O)N1Cc1ccccc1 | 7%

Going on with the list:
Molecule | VDR inhibitor
C=C(C)C1CC=C(C)/C(=N/NC(=O)c2ccc(NC(=O)c3cccc(C)c3)cc2)C1 (configuration not stated) | 4%
NC(=O)c1nsc(C(=O)N(c2ccc(F)cc2)C(C(=O)NC2CCCC2)c2ccncc2)c1N (configuration not stated) | -4%
COc1cccc(-n2nnc(S(=O)(=O)c3ccc(C)cc3)c2N)c1 | 6%
CNC(=O)c1cc(C(=O)c2ccc(F)cc2C(F)(F)F)c[nH]1 | 3%
O=C(COC(=O)c1cccc([N+](=O)[O-])c1)NCC1CCCO1 (configuration not stated) | -18%
COc1cccc(CC(=O)OCC(=O)NCC(=O)Nc2cccc(C)c2C)c1 | 7%
CC1(C)Cc2c(sc(NC(=O)/C=C/C(=O)O)c2C#N)CO1 | -16%
Cc1ccc(CN2C(=O)c3ccccc3NC2c2cc(Br)ccc2O)cc1 (configuration not stated) | 9%

(cont.)
Molecule | VDR inhibitor
O=C(Nc1c(Br)cc2c(c1Br)Cc1ccccc1-2)C(F)(F)F | ?
CCOC(=O)c1ccc(NC(=O)NC2CC3CCC(C2)N3Cc2nnnn2Cc2ccco2)cc1 (configuration not stated) | 19%
C=CCC1(CC=C)CCCN1C(=O)CC1C(=O)NCCN1Cc1cc(OC)cc(OC)c1 (configuration not stated) | 4%
COc1ccc(CCNc2oc(Cc3cccc4ccccc34)nc2C#N)cc1OC | -6%
COc1ccccc1-c1nnc(NC(=O)c2ccc(S(=O)(=O)N(C)Cc3ccccc3)cc2)o1 | 18%
Cc1ccc(O)c(-c2cc(C(F)(F)C(F)F)nc(-c3ccccc3)n2)c1 | 8%
Cc1c(C(=O)N2CCOCC2)[nH]c2ccc(OCc3ccccc3)cc12 | 0%
CN1CCN(c2ncnc3scc(-c4ccccc4Cl)c23)CC1 | -17%

Quoted at random: two entries already listed.
Molecule | VDR inhibitor
O=C(Cn1ncc2c([nH]c3ccccc32)c1=O)N1CCCCC1 | 7%
CCNc1cc2n(c(=O)n1)CCc1cc(OC)c(OC)cc1-2 | -10%

More compounds
Molecule | VDR inhibitor
CCC1CN(C(=O)N2CCC(C(=O)NCCC3=CCCCC3)CC2)c2ccccc2O1 (configuration not stated) | 6%
CCCCCNC(=O)CN(c1ccc2c(c1)OCO2)S(C)(=O)=O | -11%
CCN(CC)C(=O)Cn1cc(SCC(=O)NC)c2ccccc21 | 19%
CCCOc1ccccc1Nc1nnc(C)c(=O)[nH]1 | -5%
CCc1ccc2nc(N3CCN(C(=O)c4ccco4)CC3)sc2c1 | 6%
O=C(COC(=O)c1ccc(Br)o1)NCC(=O)Nc1ccc(F)cc1 | 21%
Cn1c(=O)c(=O)n(C)c2cc(S(=O)(=O)N3CCN(C4CCCCC4)CC3)ccc21 | -2%
O=S(=O)(c1ccccc1)N(Cc1ccc(Cl)cc1)c1ccncc1 | -29%

Not all compounds are listed, so the mix of outcomes need not match the whole.
